FLuc counter: counter-screen for miR-21 project: firefly luciferase inhibitors or activators; purified FLuc, Km substrates, luminescence inhibition; Potency, µM (doses to about 57.5 µM), without a hit: top-dose activity change, negative = inhibition, usual class: inhibitors; hit rate 6.9% among 360,000; P08659;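 note: plate controls were vehicle for no effect and reference inhibitor for full effect; nearly all actives have a fitted effect of over 55% in size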
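Purified P. pyralis luciferase, 10 nM final, with Km-level 10 uM D-luciferin and 10 uM ATP in 50 mM Tris acetate pH 7.5, 10 mM Mg acetate, 0.01% Tween-20, 0.05% BSA; 6-point qHTS titration about 60 µM downward; luminescence read.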
uPA surface inh: inhibitors of cell surface uPA generation | hit rate 0.31% among 330,000 | cell surface uPA generation assay, qHTS | Potency, µM (highest dose often 38.3 µM), inactives show at the highest dose activity change, negative = inhibition, hits mostly inhibitors; active = well fitted inhibition curve with a large enough effect; inconclusive = small, poorly fitted or top-dose-only effect; inactive = no such curve, though single readings can be large or run the other way; tested in mouse RAW 264.7 cells; note: % is set by controls: 0 for no effect and ±100 for the full control effect; nearly all actives have a fitted effect of over 55% in size
MBNL1-CUG inh: inhibitors of human MBNL1 binding to CUG repeat RNA; Q9NR56; TR-FRET MBNL1-His/biotin-(CUG)12 binding, 665/545 ratio; Potency, µM (titrated, usually from 57.5 µM), for inactives: at the top dose activity change, negative = inhibition, usual class: inhibitors; hit rate 0.036% among 280,000; AID 2675; active = well fitted inhibition curve with a large enough effect in the signal ratio, with a control signal flat, not every such curve was filed as active; inconclusive = small, poorly fitted or top-dose-only effect, or effect the other way, or a change in a side signal; inactive = no such curve, though single readings can be large or run the other way; the % refers to the signal ratio; note: % is set by controls: 0 for no effect and ±100 for the full control effect
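Compound titration spanned 92 nM–58 uM against the MBNL1-His/biotin-(CUG)12 complex. After 60 min at room temperature with 5 nM streptavidin-XL665 and 0.055 ng/ul terbium anti-His, ratiometric 665/545 nm emission (Ex 340 nm) normalized to controls.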
Rab9 promoter act: activators of Rab9 promoter. Huh7 Rab9 promoter-luciferase reporter, luminescence, 24 h. Potency, µM (titrated, usually from 9.22 µM), inactives show at the top dose activation, negative = inhibition, hits mostly activators. hit rate 2.8% among 320,000. AID 485297; note: % of control where 0% means no effect; nearly all actives have a fitted effect of over 60% in size
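Luciferase signal after 10 min detection reagent at ambient indicates Rab9 promoter upregulation; stably transfected Huh7 cells were treated 24 h with compound in DMSO at 37 °C, 5% CO2.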
ELG1 genotoxic: inducers of genotoxicity in HEK293T ELG1-luciferase cells | HEK293T ELG1-luciferase reporter, luminescence, 16 h | hit rate 1.3% among 330,000 | Potency, µM (series often up to 46 µM), without a hit: at the top dose activity change, positive = activation, usual class: activators; note: % of control where 0% means no effect; nearly all actives have a fitted effect of over 60% in size
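Reporter readout depends on ELG1 protein level, which increases with genetic stress. After 16 hr compound exposure at 37 °C, luciferase activity was quantified using ONE-Glo.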
NPC1 promoter act: activates the NPC1 promoter | Huh7 NPC1 promoter luciferase reporter, 24 h | Potency, µM (series often up to 9.22 µM), for the others: at the highest dose activation, most hits filed as activators | hit rate 2.4% among 320,000 | AID 485313;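 note: % of control where 0% means no effect; nearly all actives have a fitted effect of over 60% in size; reporter is driven by a mutant NPC1 promoter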
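Compounds in DMSO were transferred onto Huh7 NPC1-luciferase reporter cells pre-incubated 2 h; after 24 h at 37 °C, Amplite reagent was dispensed and luminescence recorded 10 min later.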
MLL CXXC-DNA inh: blocks binding of human MLL CXXC domain to DNA. AID 2662. Potency, µM (highest dose often 115 µM), without a hit: at the highest dose activity change, negative = inhibition, actives largely listed as inhibitors. Q03164. MLL-CXXC / FITC-HOXA9 DNA fluorescence polarization. hit rate 0.037% among 290,000; active = well fitted inhibition curve with a large enough effect in the polarisation, with a control signal flat, not every such curve was filed as active; inconclusive = small, poorly fitted or top-dose-only effect, or effect the other way, or a change in a side signal; inactive = no such curve, though single readings can be large or run the other way; the % refers to the polarisation
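Steps: dispense CXXC domain solution (7 uM) → pin compounds or unlabeled HOX-A9 DNA control → 5 min ambient → add FLSN-HOX-A9 solution (50 nM) → spin → 30 min ambient → fluorescence polarization. Tris pH 7.5/NaCl/DTT/BSA buffer.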
BRCA1 expr act: BRCA1 expression activation; MCF7-BRCA1-FFLuc reporter, luminescence, 48 h; response scale: scaled: vehicle 0%, 10 µM genistein 100%; Potency, µM (highest dose often 46.1 µM), inactives show top-dose activation, most hits filed as activators; hit rate 1.1% among 380,000; AID 624202; note: nearly all actives have a fitted effect of over 80% in size; some results filed as inactive show a strong effect at the top dose
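Cells: MCF7-BRCA1-FFLuc, 2000/well. Exposure: 48 h, 37 °C, 5% CO2. Read: luminescence, 15 min post-substrate. Controls: genistein 10 microM (maximal activation), DMSO (neutral).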
p53 reactivation: mutant p53 re-activation in reporter cells; H1299 p53-A138V BP100-luciferase reporter, luminescence, 24 h; Potency, µM (titrated, usually from 92.2 µM), for the others: at the top dose activity change, positive = activation, usual class: activators; hit rate 0.063% among 320,000; AID 504706; note: % of control where 0% means no effect; nearly all actives have a fitted effect of over 45% in size
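H1299 (p53-null), stable ts p53-A138V + BP100-Luc; 1000 cells/well, Opti-MEM/10% FBS; cpd 4 pt, 1:5; 24 h, 37 deg C, 5% CO2; detection reagent 10 min RT; luminescence.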
Numbers without * were called inactive; ? = inconclusive; . = not tested or not shown; & = joins results of further samples; [ ] = remark or other dose. Unless noted, calls come from the whole dose curve; as a rule, active = well fitted curve in the direction sought with a large enough effect; inconclusive = small, poorly fitted or top-dose-only effect, or another doubt; inactive = no such curve, though single readings can be large; an effect the other way counts as inactive or inconclusive. Potency is the fitted concentration of half-maximal effect. This is a subset. The share of hits here may be higher or lower than overall.

molecule	FLuc counter	BRCA1 expr act	uPA surface inh	NPC1 promoter act	MBNL1-CUG inh	p53 reactivation	MLL CXXC-DNA inh	Rab9 promoter act	ELG1 genotoxic
COC(=O)c1ccc2c(c1)C(C)(C)C(/C=C/c1ccc(OC)c(OC)c1OC)=[N+]2C	?	-89%	-15%	-46%[inhibitor]	28%	-12%	0%	-52%[inhibitor]	-2%
C=CCc1cc(Cl)ccc1OCCCNC(C)C	-1%	-32%	-10%	-1%	-2%	-12%	11%	-7%	-5%
COc1ccc(/C(C)=N/Nc2ccc(C(=O)O)cc2)cc1OC	6.7µM*	-3%	0%	0.63µM*	?	.	-2%	1.3µM*	?
COc1cc(CNCc2ccc(OC)c3ccccc23)cc(OC)c1OC	-1%	-60%	?	-14%	1%	-26%	1%	-17%	-1%
CC(=O)N[C@H](CC(C)C)C(=O)O	.	.	.	.	.	.	-1%	.	.
CN1/C(=C/c2cccc[n+]2C)Sc2ccccc21	0%	-19%	?	-35%[inhibitor]	?	21%	13%	-50%[inhibitor]	-2%
CCS(=O)(=O)N1CCN(Cc2ccccc2OC)CC1	0%	0%	-3%	0%	-9%	-7%	-10%	1%	-3%
O=C(CNCc1ccco1)Nc1ccc(N2CCCCCC2)cc1	-12%	7%	-2%	2%	-1%	-1%	0%	19%	1%
CCN(CC)CCCC(C)Nc1c2ccc(Cl)cc2nc2ccc(OC)cc12 (stereo unspecified)	-1%	-53%	.	-35%[inhibitor][46.1 µM]	?	.	?	-43%[inhibitor][46.1 µM]	.
O=c1[nH]c(=O)n(C2CCCO2)cc1F (stereo unspecified)	5%	0%	0%	0%	14%	1%	3%&-2%	2%	-1%

Next section, starting with the last 2 of the part before.
molecule	FLuc counter	BRCA1 expr act	uPA surface inh	NPC1 promoter act	MBNL1-CUG inh	p53 reactivation	MLL CXXC-DNA inh	Rab9 promoter act	ELG1 genotoxic
CCN(CC)CCCC(C)Nc1c2ccc(Cl)cc2nc2ccc(OC)cc12 (stereo unspecified)	-1%	-53%	.	-35%[inhibitor][46.1 µM]	?	.	?	-43%[inhibitor][46.1 µM]	.
O=c1[nH]c(=O)n(C2CCCO2)cc1F (stereo unspecified)	5%	0%	0%	0%	14%	1%	3%&-2%	2%	-1%
CCCCN1/C(=C/c2ccc3ccccc3[n+]2CC)Sc2ccccc21	2%	-63%	-16%	-32%[inhibitor]	?	-9%	?	-47%[inhibitor]	-10%
COc1ccc2sc(/C=C/c3ccccc3O)[n+](C)c2c1	?	22%	-7%	-2%	?	0%	?	2%	-7%
CCOCC(O)COc1ccc(NC(=O)CC[S+](C)C)cc1 (stereo unspecified)	.	.	.	.	.	.	-10%	.	.
COCc1c(C(C)C)nc(C(C)C)c(/C=C/[C@@H](O)C[C@@H](O)CC(=O)O)c1-c1ccc(F)cc1	.	.	.	.	.	.	6%	.	.
COc1cccc(NC(=O)C(NCC2CCCCC2)c2ccccc2)c1 (stereo unspecified)	-13%	-6%	7%	-4%	-15%	-2%	-5%	1%	1%
O=P(O)(OCc1ccccc1)OCc1ccccc1	1%	12%	-2%	7%	.	-5%	.	0%	0%
COc1ccc(O)cc1	.	2%	6.3µM*	.	.	-6%	7%	.	10%
OCC1O[C@H](O[C@H]2C(O)C(O)C(O)O[C@@H]2CO)C(O)C(O)C1O (stereo partly specified)	.	.	.	.	.	.	14%	.	.
Cc1ccc(C(C)C)c(OCCCN(C)Cc2ccccc2)c1	-1%	-46%	9%	-3%	0%	5%	?	-1%	-6%
CC(=O)Nc1cccc(O)c1	-2%	37%	-8%	0%	.	6%	0%	-4%	0%
CC(C)c1ccc(/C=N/N2CCCCC2)cc1	1.5µM*	0%	1%	21%	.	1%	2%	3.2µM*	?
CC(O)(P(=O)(O)O)P(=O)(O)O	.	24%	4%	.	.	.	-1%	.	.
CCC[n+]1c(C)sc2c(OC)ccc(OC)c21	-4%	-19%	2%	-5%	-3%	2%	-5%	-3%	4%
COc1cccc(-c2ncc3ccccn23)c1	8.5µM*	105%	-7%	4µM*	?	?	-3%	2.8µM*	?
CN1C(=O)CC(c2ccccc2)C1=O (stereo unspecified)	1%	-18%	20%	-2%	.	-2%	.	2%	-2%
Clc1ccccc1-c1ncc2ccccn12	2%	17%	-17%	-3%	13%	11%	4%	5%	6%
CN(C)c1ccc(/C=C/c2cc[n+](C)cc2)cc1	-16%	-48%	-10%	-25%	?	5%	?	-20%	-5%
Cc1ccc(OCCCCNC2CCCCC2)c(C)c1	-2%	-69%	-8%	15%	-9%	-6%	6%	-6%	-1%
O=C(O)C(S)C(S)C(=O)O (stereo unspecified)	.	18%	0%	.	.	.	.	.	.
NC(=O)Nc1ccc(Cl)cc1	3%	0%	-1%	-37%[inhibitor]	-6%	1%	-10%	11%	0%

As entered above:
CCN(CC)CCCC(C)Nc1c2ccc(Cl)cc2nc2ccc(OC)cc12 (stereo unspecified) in FLuc counter = -1%
Cc1ccc(OCCCCNC2CCCCC2)c(C)c1 in p53 reactivation = -6%
Cc1ccc(C(C)C)c(OCCCN(C)Cc2ccccc2)c1 in BRCA1 expr act = -46%

Additional entries.
molecule	FLuc counter	BRCA1 expr act	uPA surface inh	NPC1 promoter act	MBNL1-CUG inh	p53 reactivation	MLL CXXC-DNA inh	Rab9 promoter act	ELG1 genotoxic
CC(C)(C)C(=O)OCOC(=O)[C@@H]1N2C(=O)[C@@H](NC(=O)[C@H](N)c3ccccc3)[C@H]2SC1(C)C	.	.	.	.	.	.	-14%[51.4 µM]	.	.
C=C1CC[C@H](O)C/C1=C/C=C1\CCC[C@]2(C)[C@@H]([C@H](C)CCCC(C)C)CC[C@@H]12	.	.	.	.	.	.	1%	.	.
CC(C)(C)c1cc(Cl)ccc1OCCn1ccnc1	-4%	5%	1%	2%	13%	-8%	1%	2%	-1%
NC(N)=NN=C1CCCCCCCCCCC1	0%	-35%	-5%	-19%	.	-9%	-4%	-30%	-12%
Cc1ccc(OCCCCn2cnc3ccccc32)c(C)c1	11µM*	5%[1.84 µM]	-2%	2%	8%	18%	-6%	-1%	4%
CCN(CC)CCCC(C)Nc1ccnc2cc(Cl)ccc12 (stereo unspecified)	.	-79%	.	9%[46.1 µM]	.	.	3%	-4%[46.1 µM]	.
Cc1ccc2cccc(OCCCOc3ccccc3F)c2n1	19µM*	0%	8%	-2%	8%	6%	-1%	13%	3%
CN1CCN(c2c(F)cc3c(=O)c(C(=O)O)cn(CCF)c3c2F)CC1	1%	.	.	-3%	2%	.	-6%&1%	0%	.
c1ccc2cc(OCCCn3ccnc3)ccc2c1	?	90%	1%	19%	4%	.	-5%	11%	0%
CCN(c1ccccc1)S(=O)(=O)c1ccc(Cl)c(NC(=O)CN2CCCCCC2)c1	-1%	-38%	-9%	-18%	-4%	1%	2%	-2%	-15%
CC(C)(c1cc(Br)c(O)c(Br)c1)c1cc(Br)c(O)c(Br)c1	1%	-8%	9%	0%	.	-10%	.	1%	1%
Cc1ccccc1/C=C/c1cccc[n+]1C	3%	-12%	-17%	-27%	3%	.	8%	-32%[inhibitor]	-9%
Cc1ccc(S(=O)(=O)N2CCN(CC3CC4C=CC3C4)CC2)cc1 (stereo unspecified)	1%	-2%	0%	1%	-1%	8%	1%	-7%	-5%
CCN(CC)CCNC(=O)c1cc(Br)c(N)cc1OC	0%	-5%	14%	0%	.	-3%	.	-2%	-10%
Cc1ccc(OCCCNCCO)c(Br)c1	-2%	30%	-3%	9%	-1%	?	19%	19%	?
CSc1ccc(CN2CCN(Cc3ccc([N+](=O)[O-])cc3)CC2)cc1	3%	-43%	-6%	-31%[inhibitor]	?	-9%	4%	-37%[inhibitor]	6%
C=CCc1cccc(OC)c1OCCOCCNCCO	7%	6%	-5%	-5%	6%	-2%	18%	-4%	2%
CN1C(=O)C[C@H](c2ccccc2)C1=O	.	.	.	.	.	.	?	.	.
Cc1cc(C(=O)O)ccc1[N+](=O)[O-]	3%	2%	1%	-2%	.	-3%	.	-3%	1%
O=C(CN1CCCCC1)Nc1c2c(nc3ccccc13)N(c1ccccc1)CC2	2%	-59%	-4%	-9%	76%[activator]	2%	10%	-6%	4%
CCC1(C)CC(=O)NC1=O (stereo unspecified)	.	.	.	1%[46.1 µM]	.	.	13%	8%[46.1 µM]	.
Cc1ccc(C(C)C)c(OCCCn2ccnc2C)c1	3%	-46%	0%	-5%	3%	.	6%	-5%	-8%
COc1cccc(OC)c1C(=O)N[C@@H]1C(=O)N2[C@@H]1SC(C)(C)[C@@H]2C(=O)O	.	0%	2%	.	.	.	.	.	.
CC1(S(=O)(=O)O)CC(=O)c2ccccc2C1=O (stereo unspecified)	2%	-81%	7.9µM*	1%	4%	-9%	5%	4%	-6%
CN(C)CCOCCOc1ccccc1-c1ccccc1	-5%	-9%	.	-5%	14%	-2%	-9%	-7%	-2%

Bioassay records: PubChem BioAssay, National Center for Advancing Translational Sciences (NCATS)
